Compound activity as filed in PubChem.
rRNA inh HTS = inhibitors of bacterial rRNA selective over humanized ribosomes | E. coli WT GFP vs humanized-ribosome RFP mutants, fluorescence, 24 h; active compounds read low; DMSO median 0, no signal -100 | GFP signal change (wild-type ribosome), % (test concentration not listed) | 1.6% of 350,000 active | AID 720706;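 active = significant combined selectivity score with lowered wild-type GFP, culture density cut under 30%, mutant RFP and density less affected; inactive = any of these conditions unmet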; note: one replicate is shown; some compounds called inactive have numbers as strong as hits
Calb FLC = C. albicans growth modulation with fluconazole; C. albicans CaCi-2 (fluconazole-resistant clinical isolate) + fluconazole, Alamar Blue growth, 48 h; growth inhibition, % (concentration not given with the values); 0.57% of 300,000 active; AID 1979;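 active = most replicates above 75%; inconclusive = exactly half above 75%; inactive = most below 75%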;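 note: all wells also contain fluconazole at 8 µg/ml as a sub-toxic cotreatment; 0% = median of DMSO wells and 100% = median of geldanamycin control wells; wells of about 8 µL received 7.5 nL stock; the first replicate is given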
MLL AF4-AF9 inh = blocks AF4 peptide binding to human AF9 | AID 651704 | inhibition, % at 10 µM | 0.47% of 350,000 active | P42568 | AlphaScreen, biotin-AF4 peptide binding to FLAG-AF9;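 active = every replicate reaching a set inhibition limit, whatever the replicate mean, cut at about 25% in these data; inconclusive = mean inhibition reaches that limit but some replicates miss it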;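 note: 0% = plate neutral control median and 100% = total signal loss; the record names both 10 and 1 µM as test concentration; the first replicate is given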
Target sequence (P42568 whole entry, looked up): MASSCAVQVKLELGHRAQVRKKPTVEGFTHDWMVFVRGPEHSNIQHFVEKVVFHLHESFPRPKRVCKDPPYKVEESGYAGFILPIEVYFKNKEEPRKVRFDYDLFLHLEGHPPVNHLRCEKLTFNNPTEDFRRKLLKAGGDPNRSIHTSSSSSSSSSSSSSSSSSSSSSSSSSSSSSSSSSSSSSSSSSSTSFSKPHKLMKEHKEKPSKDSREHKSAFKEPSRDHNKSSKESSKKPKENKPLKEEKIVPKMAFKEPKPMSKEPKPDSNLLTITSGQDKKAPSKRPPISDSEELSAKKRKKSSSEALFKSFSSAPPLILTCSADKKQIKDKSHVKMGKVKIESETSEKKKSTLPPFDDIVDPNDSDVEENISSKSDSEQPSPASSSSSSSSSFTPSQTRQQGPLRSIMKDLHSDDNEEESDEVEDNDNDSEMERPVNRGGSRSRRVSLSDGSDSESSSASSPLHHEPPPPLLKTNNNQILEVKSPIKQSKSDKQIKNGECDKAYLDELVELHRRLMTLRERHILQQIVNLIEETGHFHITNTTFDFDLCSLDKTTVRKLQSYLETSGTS
FGF22 binding = binders of recombinant human FGF22 by thermal shift; Q9HCT0; SYPRO orange fluorescence; percent of sucrose octasulfate shift, DMSO zero; calls only at 9.99 µM; 1.5% of 340,000 active; AID 651658;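 active = melting point raised past a set limit in the mean and every replicate; inconclusive = no clear call; three in four hits are not shown here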
Target sequence (Q9HCT0 whole entry, looked up): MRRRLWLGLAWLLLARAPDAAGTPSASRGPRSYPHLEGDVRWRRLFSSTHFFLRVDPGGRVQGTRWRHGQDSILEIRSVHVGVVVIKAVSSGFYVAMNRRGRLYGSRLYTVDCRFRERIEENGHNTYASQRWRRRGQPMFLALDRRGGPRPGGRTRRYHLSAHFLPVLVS
T cruzi repl = blocks replication of Trypanosoma cruzi; T. cruzi beta-gal in NIH3T3, luminescence, 90 h; inhibition, % (test concentration not listed); 1.4% of 300,000 active;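 active = mean inhibition across valid replicates above about 55%, limit read from the data; inconclusive = mean below that limit but half or more replicates reach it; inactive = mean below it, under half of replicates reach it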;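 note: signal also drops with host cell toxicity which is not excluded here; 0% = plate median of DMSO wells and 100% = zero luminescence signal; higher percent means less beta-gal luminescence so fewer parasites; stock transfer was 50 nL into about 50 µL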
ALR H2O2 inh = human ALR oxidase inhibition via reduced H2O2 | 3.8% of 290,000 active | purified ALR, DTT oxidation, H2O2 HRP-luminol luminescence | P55789 | inhibition, % (concentration not given with the values);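 active = mean and each replicate at 75% or more; inconclusive = only one of the two met; inactive = neither met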;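 note: stock transfer was 7.5 nL into about 7.5 µL; 0% = neutral wells and 100% = wells with inactivated enzyme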
Target sequence (P55789 whole entry, looked up): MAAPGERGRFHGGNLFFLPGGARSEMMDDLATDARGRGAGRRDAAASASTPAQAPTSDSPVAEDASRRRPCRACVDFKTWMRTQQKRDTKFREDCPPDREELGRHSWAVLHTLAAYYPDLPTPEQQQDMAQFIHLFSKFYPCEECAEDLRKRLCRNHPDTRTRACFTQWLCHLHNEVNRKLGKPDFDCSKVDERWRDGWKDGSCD
RanGTP-Impb inh = disruptors of Ran-importin-beta complex formation – biochemical, FRET, CFP-Ran, YFP-importin-beta, homogeneous, primary screen; cell-free CFP-Ran/YFP-importin-beta FRET ratio; inhibition, % (no concentration beside the values); 1.1% of 300,000 active;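 active = most replicates above 15%; inconclusive = exactly half above 15%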;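 note: 0% = DMSO wells and 100% = Ran loaded with GDP instead of GTP; wells of about 40 µL received 100 nL stock; the first replicate is given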
Beta cell apopt = blocks beta cell apoptosis; AID 435005; protection from apoptosis, % (test concentration not listed); INS-1E cytokine-induced death, ATP luminescence, 48 h; percent of positive-control rescue, neutral wells zero; 0.8% of 300,000 active;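 active = all replicates at 75% or more, or half of them and the mean; inconclusive = half reach 75% but not the mean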;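 note: 0% = cytokine-treated negative control wells and 100% = positive control rescue; higher means more ATP so stronger rescue from cytokine killing; wells of about 40 µL received 100 nL stock; the first replicate is given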
rRNA inh HTS OD600 = further read-out of rRNA inh HTS, marked with its call; OD600 change, %; measured here: OD600 growth;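 optical density of the mix in the first replicate; 0 = DMSO median and -100 = no signal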
rRNA inh HTS RFP = also measured in rRNA inh HTS; calls as there; RFP signal change, %; measured here: RFP humanized mutant strains;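 first replicate; 0 = DMSO median and -100 = no signal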
* hit, by the source's call; i = inactive; u = inconclusive; x = no result given; + = active, no number. An excerpt; the hit share may differ from the screen's.

SMILES | rRNA inh HTS | rRNA inh HTS OD600 | rRNA inh HTS RFP | Calb FLC | MLL AF4-AF9 inh | FGF22 binding | T cruzi repl | ALR H2O2 inh | RanGTP-Impb inh | Beta cell apopt
Cc1c(NC(=O)c2cc(=O)[nH]c3ccccc23)c(=O)n(-c2ccccc2)n1C | x | x | x | 2 | x | x | 12 | -24 | 0.3 | 1
COC(=O)c1ccc(C(=O)NC2CC(C)(C)Cc3c2cnn3-c2ccc(F)cc2)nc1 (stereo not drawn) | -10 | -10 | -2.1 | 15 | 1.8 | i | -7 | -4 | 2.3 | 6
Cc1ccc(NC(=S)N2CCCCC2)cc1C | x | x | x | 1 | 2.0 | i | -45 | -4 | -1.6 | 0
COc1ccc(NC(=O)CSCC(=O)N(C)Cc2ccc(Cl)c(Cl)c2)cc1 | x | x | x | x | 1.4 | i | x | -15 | x | 0
Cc1noc(C)c1COc1ccc(C(=O)N2CCC(C)CC2)cc1 | -2 | -9 | 2.6 | x | 1.0 | i | x | -5 | x | 3
O=C(O)CC(CP(=O)(c1ccccc1)c1ccccc1)C(=O)O (stereo not drawn) | -1 | 1 | -0.7 | -7 | -1.6 | i | 1 | 2 | 5.1 | x
O=C(CCC(=O)Nc1ccccc1Cl)N/N=C/c1c[nH]c2ccccc12 | -13 | -3 | 7.6 | 8 | 7.2 | i | 0 | 8 | -1.9 | -1
S=C(Nc1ccccc1)N1CCN(C(=S)c2ccccc2)CC1 | -9 | -1 | 3.5 | 16 | -10 | x | -26 | -4 | -2.1 | -10
COc1ccc(Br)cc1C(=O)Nc1nnn(C)n1 | x | x | x | -2 | x | x | 5 | -6 | 0.0 | 1
CCc1c(C)[nH]c2nc3ccccc3n2c1=O | x | x | x | 22 | x | x | 44 | -3 | 3.5 | -3
CCc1nc(SCC(=O)NCCc2ccccc2)n[nH]1 | x | x | x | -4 | x | x | -9 | -3 | 0.0 | -6
CC1CCC(NC(=O)c2ccc(COc3ccccc3)o2)CC1 (stereo not drawn) | 16 | 7 | 0.6 | x | u | i | 4 | -3 | u | -5
CCOC(=O)CSc1nc2sc(C(=O)O)c(C)c2c(=O)[nH]1 | 6 | 8 | -2.3 | 8 | 1.0 | i | -12 | 26 | -4.5 | -3
CC1Cc2ccccc2N1C(=O)C1CCN(S(=O)(=O)Cc2ccccc2)CC1 (stereo not drawn) | x | x | x | 0 | x | x | 0 | 0 | 0.7 | 9
CC(=O)OC1OCCOC1NC(=S)Nc1ccc(C)cc1 (stereo not drawn) | 14 | 9 | 2.8 | 3 | 0.0 | i | 2 | 5 | 2.6 | 4
COc1cccc(-c2cc(C(=O)NCCN3CCOCC3)no2)c1 | x | x | x | 27 | x | x | -2 | 3 | -2.0 | -1
COc1ccc(OCCC(=O)Nc2nccs2)cc1 | 9 | 10 | 7.8 | -5 | -13 | i | -2 | -2 | -1.7 | x
Cc1ccc(NC(=S)Nc2cccc3cnccc23)cc1 | -42 | -68 | 0.4 | 38 | 3.2 | i | -13 | -8 | 5.9 | -3
O=C(OCC(=O)N1CCCC1)c1c(Cl)cccc1Cl | -22 | -33 | 1.9 | -2 | 1.2 | i | -3 | -5 | -2.3 | -4
COCCCNC(=S)N1CCN(c2nc(C)nc3sc4c(c23)CCCC4)CC1 | -35 | -46 | -5.5 | 1 | -9.6 | i | -2 | 10 | 4.0 | x

Whole records from above. Values in the order: rRNA inh HTS | rRNA inh HTS OD600 | rRNA inh HTS RFP | Calb FLC | MLL AF4-AF9 inh | FGF22 binding | T cruzi repl | ALR H2O2 inh | RanGTP-Impb inh | Beta cell apopt
Shown for `O=C(OCC(=O)N1CCCC1)c1c(Cl)cccc1Cl` → -22 | -33 | 1.9 | -2 | 1.2 | i | -3 | -5 | -2.3 | -4
Shown for `COc1cccc(-c2cc(C(=O)NCCN3CCOCC3)no2)c1` → x | x | x | 27 | x | x | -2 | 3 | -2.0 | -1
Shown for `COCCCNC(=S)N1CCN(c2nc(C)nc3sc4c(c23)CCCC4)CC1` → -35 | -46 | -5.5 | 1 | -9.6 | i | -2 | 10 | 4.0 | x
Shown for `CCc1c(C)[nH]c2nc3ccccc3n2c1=O` → x | x | x | 22 | x | x | 44 | -3 | 3.5 | -3

(cont.)
SMILES | rRNA inh HTS | rRNA inh HTS OD600 | rRNA inh HTS RFP | Calb FLC | MLL AF4-AF9 inh | FGF22 binding | T cruzi repl | ALR H2O2 inh | RanGTP-Impb inh | Beta cell apopt
Cc1c(C(=O)Nc2ccc(F)cc2)oc2ccc(S(=O)(=O)N3CC(C)CC(C)C3)cc12 (stereo not drawn) | 5 | 11 | 1.1 | 3 | -2.9 | i | 26 | -5 | 3.5 | 53
C=CCNC(=O)c1c(O)c2cccc3c2n(c1=O)CCC3 | 7 | 13 | -0.3 | -2 | -8.0 | i | -5 | 0 | -1.0 | x
CCc1ccc(NS(=O)(=O)c2ccc(OC)c3ncccc23)cc1 | 6 | 3 | -1.9 | 0 | -0.1 | i | -3 | -3 | 5.3 | 2
Cc1c(CCO)c(=O)n2c([nH]c3ccccc32)c1C#N | -2 | -4 | 3.6 | -1 | -1.1 | i | 35 | 27 | u | -2
CCOCCOCCC(C(=O)OCC)P(=O)(c1ccccc1)c1ccccc1 (stereo not drawn) | x | x | x | 10 | x | x | 0 | -10 | 6.4 | -2
CCCN1CCN(C(=O)C(NC(=O)c2ccco2)C(C)C)CC1 (stereo not drawn) | 7 | 5 | 6.3 | 3 | 0.6 | i | -4 | -4 | -0.7 | -24
Cc1ccc(C)c(NC(=O)c2cc(-c3ccccc3)nn2-c2ccccc2)c1 | x | x | x | 29 | x | x | -12 | -13 | 2.4 | -3
CCN1C(=O)C(CC(=O)Nc2ccc(OC)cc2)N(CCc2ccc(OC)cc2)C1=S (stereo not drawn) | -27 | -64 | 4.9 | 3 | -14 | + | 13 | -2 | -1.7 | x
O=C(OCC(=O)N(Cc1ccccc1)Cc1ccccc1)c1ccccc1NCCO | -13 | -33 | 7.5 | 13 | -11 | i | 4 | 9 | 2.4 | 3
FC(F)(F)C(F)(F)c1nnc2ccc(-n3ccnc3)nn12 | 14 | 11 | -2.5 | u | -1.6 | i | -16 | -4 | u | -3
COc1cccc(NC(=O)CCS(=O)(=O)c2cc3c(cc2Cl)NC(=O)CO3)c1 | 2 | 11 | 3.9 | 1 | 1.0 | i | -11 | -12 | -1.7 | 0
COc1ccc(C(=O)c2sc3nc(C)cc(-c4cccs4)c3c2N)cc1 | -4 | -13 | -2.9 | 13 | -46 | i | -3 | x | -114 | x
CCCC(=O)NC(Nc1ccc(S(=O)(=O)Nc2ncccn2)cc1)(C(=O)OCC)C(F)(F)F (stereo not drawn) | x | x | x | -3 | x | x | -12 | 5 | 2.5 | -11
CCc1nc(N2CCCCC2C)c2oc3ccccc3c2n1 (stereo not drawn) | x | x | x | -6 | x | x | 20 | 4 | u | 15
CC1CCN(S(=O)(=O)c2ccc(NC(=O)CN3CCN(c4ccccc4)CC3)cc2)CC1 | 9 | 9 | -1.5 | -6 | 4.6 | i | 29 | -7 | 3.3 | 15
CC(NCc1ccccc1Cl)C(=O)Nc1ccc(C#N)cc1 (stereo not drawn) | -29* | -18* | -5.9* | -21 | 2.4 | i | -9 | -15 | 0.4 | -5
O=[N+]([O-])c1ccc(CN2CCCCCC2)cc1 | 6 | 6 | 3.8 | 3 | 3.2 | i | -9 | -6 | 1.2 | 0
Cc1csc(=O)n1CC(=O)OCC(=O)c1ccc(Br)cc1 | 4 | -3 | -4.4 | -6 | -1.0 | x | -5 | 3 | 6.5 | x
CCc1ccc(N2C(=O)CN(Cc3ccc(OC)c(OC)c3)C2=S)cc1 | -6 | -17 | -4.1 | -7 | -0.5 | i | -9 | 21 | -7.9 | -1
CSCCC(NS(=O)(=O)c1cccs1)C(=O)NCc1cccs1 (stereo not drawn) | x | x | x | 5 | x | x | -3 | -2 | 0.4 | -4
O=C(NC1CSCC1OC(=O)c1ccccc1)c1ccccc1 (stereo not drawn) | -4 | -5 | 0.6 | -6 | 4.7 | i | -1 | -3 | 0.4 | -4
CCCc1c(C(=O)OCC)[nH]c2c1C(=O)CCC2 | 5 | -17 | -0.3 | 2 | -2.0 | i | 9 | x | u | -7
S=C(NCC1CCCO1)N1CCN(Cc2ccccc2)CC1 (stereo not drawn) | -3 | -7 | -3.7 | 3 | 0.0 | i | -10 | 6 | 0.5 | -2
COC(=O)c1ccccc1NC(=O)N[C@@H](C)C(=O)OC | x | x | x | -2 | x | x | -6 | -8 | -2.8 | -4
O=C(Cc1ccsc1)NNC(=O)c1ccc(F)cc1 | 2 | 4 | 1.1 | 5 | 0.4 | i | -5 | -8 | 1.1 | -3
COc1ccc([N+](=O)[O-])cc1NCC(=O)Nc1cc(S(=O)(=O)N2CCCCC2)ccc1C | -5 | -1 | -0.1 | x | 5.0 | i | x | x | x | -2
COCCNC(=O)CSc1nnc(-c2ccccc2)c(-c2ccccc2)n1 | 16 | 11 | -4.3 | -2 | -2.5 | i | -12 | 6 | 1.9 | -5
CC(C)(C)CC(=O)OCC(=O)Nc1cc(C(C)(C)C)nn1-c1ccccc1 | x | x | x | 12 | x | x | 13 | 0 | -2.2 | -5
CCCCc1ccc(-c2nc(N)n[nH]2)cc1 | x | x | x | 65 | x | x | 22 | 0 | -1.1 | -10
Cc1c(C(=O)NN2CCOCC2)oc2ccccc12 | 15 | 11 | 3.9 | -8 | -0.1 | i | -4 | 5 | -1.5 | -4
CCN(CC)c1ccc(S(=O)(=O)N2CCOCC2)cc1NC(=O)CSc1cccc[n+]1[O-] | -10 | -22 | -14 | -1 | 3.0 | i | 5 | -2 | -0.3 | -3
Cc1ccc(OCC(=O)Nc2cc(NC(=O)COc3ccc(C)c(C)c3)cc(C(=O)O)c2)cc1C | 10 | 13 | -1.2 | 1 | -24 | i | -12 | 54 | u | -6
Cc1noc(C)c1-c1nnc(-c2ccc(OC(F)(F)F)cc2)o1 | 9 | 10 | -1.1 | -18 | -1.5 | i | 5 | 7 | u | 9
O=C(CSc1nnnn1C1CCCC1)c1ccc2c(c1)OCCO2 | -13 | -20 | -1.6 | 4 | x | x | -2 | 72 | -0.6 | -8
COc1cccc(C(=O)COc2ccc3c(C)cc(=O)oc3c2)c1 | 7 | 6 | -1.0 | 5 | 1.2 | i | -8 | -11 | 0.1 | 16
Cc1ccc(S(=O)(=O)NCCC(=O)NCc2cccnc2)cc1 | 17 | 19 | 7.2 | 7 | -0.6 | i | 5 | -1 | u | -1
Cc1cccc(NS(=O)(=O)c2cc(C(=O)N3CCN(C)CC3)ccc2C)c1 | x | x | x | 20 | x | x | -2 | -15 | -1.1 | 5
O=C(OCC(=O)N1c2ccccc2Sc2ccccc21)c1ccc[n+]([O-])c1 | -17 | -14 | -10 | x | 2.8 | i | x | 13 | x | 3
COc1ccc(C(=O)Cc2ccc3c(c2)OCO3)c(O)c1 | x | x | x | -7 | x | x | 23 | -2 | -3.3 | -11
COc1cccc(-n2ccnc2SCC(=O)Nc2ccccc2F)c1 | -36 | -40 | -3.0 | -20 | 4.2 | i | 1 | 19 | 2.9 | -1
